Screening results from PubChem.
MenB inh: blocks the Mycobacterium tuberculosis MenB enzyme; P9WNP5; AID 540299; inhibition, %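 (about 12 µg/mL by stock and volumes)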; actives 0.43% (n = 100,000); MenB enzyme assay, absorbance read-out; some hits fall short of the stated cut;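 active = mean of two replicates above 30%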;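 also: 0% = no compound and 100% = wells with inactive enzyme; the first replicate is given; strong numbers were not always called active; inactives centre near -10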
Target sequence (P9WNP5 whole entry, looked up): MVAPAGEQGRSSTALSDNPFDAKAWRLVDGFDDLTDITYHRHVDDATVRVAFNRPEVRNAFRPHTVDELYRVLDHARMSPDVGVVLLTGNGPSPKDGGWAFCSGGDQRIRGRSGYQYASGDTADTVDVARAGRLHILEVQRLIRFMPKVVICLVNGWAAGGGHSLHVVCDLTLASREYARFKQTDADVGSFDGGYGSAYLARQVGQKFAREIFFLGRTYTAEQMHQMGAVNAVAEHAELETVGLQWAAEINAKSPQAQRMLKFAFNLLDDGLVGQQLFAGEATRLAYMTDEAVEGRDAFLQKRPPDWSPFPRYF
MbtI inh: blocks the Mycobacterium tuberculosis siderophore enzyme MbtI | actives 0.89% (n = 100,000) | AID 493033 | P9WFX0 | inhibition, %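 (about 17 µg/mL by stock and volumes)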 | purified MbtI enzyme, fluorescence intensity read-out;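 active = above 50% in both replicates, above 80% if mildly self-fluorescent; inactive = the rest, strongly fluorescent compounds included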;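 also: 0% = mean of negative and 100% = mean of positive controls; one replicate is shown; some compounds called inactive have numbers as strong as hits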
Target sequence (P9WFX0 whole entry, looked up): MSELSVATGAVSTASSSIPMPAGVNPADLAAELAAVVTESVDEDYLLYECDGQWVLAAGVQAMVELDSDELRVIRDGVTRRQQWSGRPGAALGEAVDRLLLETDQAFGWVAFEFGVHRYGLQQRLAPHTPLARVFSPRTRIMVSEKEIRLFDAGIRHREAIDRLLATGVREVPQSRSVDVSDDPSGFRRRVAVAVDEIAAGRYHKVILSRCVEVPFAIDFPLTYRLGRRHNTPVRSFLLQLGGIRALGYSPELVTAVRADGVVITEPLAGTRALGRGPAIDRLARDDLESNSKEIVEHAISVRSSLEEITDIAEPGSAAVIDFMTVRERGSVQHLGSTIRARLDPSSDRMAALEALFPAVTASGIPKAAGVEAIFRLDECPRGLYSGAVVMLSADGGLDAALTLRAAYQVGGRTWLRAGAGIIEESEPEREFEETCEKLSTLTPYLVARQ
PV pol inh: poliovirus RNA polymerase inhibition; poliovirus polymerase elongation, fluorescence polarization; stronger effect = lower value; P03300; % elongation, % (compound at 16.7 µg/mL); AID 588519; actives 0.66% (n = 150,000); in the data active = % elongation below about 90%; also: some results filed as inactive read as strong as hits
PV pol inh intensity: recorded beside PV pol inh, whose call it bears; % elongation; measured here: total intensity read-out; formula for this scale not given here;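 total fluorescence in place of polarization; lower means less elongation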
Starred values were filed as active, the others as inactive; x = no result given; & = joins results of further samples. Outcome played no part in choosing rows; 2% or so of the library scored in one or more.

SMILES	MenB inh	MbtI inh	PV pol inh	PV pol inh intensity
CCOc1ccc(CNc2ccc(CNc3ncn[nH]3)cc2)cc1	-18	-15	100	98
CC(C)(C)S(=O)(=O)c1ccc(C(=O)O)s1	-12	8	104	108
N#CC1=C(N)Oc2c(c(=O)oc3ccccc23)C12C(=O)Nc1ccccc12 (stereo unspecified)	-52	-17	102	100
O=c1[nH]cnc2scc(-c3cccs3)c12	0	12	102	107
CCc1onc(C)c1C(=O)Nc1ccc2c(c1)OCO2	15	-10	x	x
Cn1nc(-c2ccc(C(=O)Nc3ccc(Cl)cc3)s2)cc1C(F)(F)F	7	-4	103	109
CCc1cc2c(SCC(N)=O)ncnc2s1	2	2	101	100
CN(C)S(=O)(=O)c1ccc(N2CCCC2)c(C(=O)OCC(=O)NCc2ccc3c(c2)OCO3)c1	-8	-18	104	110
COc1ccc(C(=O)OCc2ccccc2F)c(OC)c1OC	6	5	106	103
COCCn1c(SCC(=O)C(F)(F)F)nnc1-c1ccncc1	14	15	103	98
COc1ccccc1N1CCN(/C=C2/SC(=S)NC2=O)CC1	-27	22	x	x
Clc1ccccc1Cn1c(CSC2=NCCN2)nc2ccccc21	-38	8	100	102
O=C(COc1ccc(Cl)cc1Cl)OCC1CCCN2CCCCC12 (stereo unspecified)	6	x	104	113
NC(=O)CSc1ncccc1C(=O)O	15	8	95	103
Cc1ccc(Cn2nnc3c(=O)n(Cc4cccc(C)c4)cnc32)cc1	-11	17	97	96
Cc1cccn2c(=O)c(/C=N/O)c(Nc3ccc(Cl)cc3)nc12	0	3	100	104
CCCCC/C=C\C=C\[C@H](CCCCCCCC(=O)O)OO	4	-19	102&101	102&101
O=C1CCCC2=C1C(c1ccncc1)Nc1ccccc1N2 (stereo unspecified)	-7	11	99	104
N#CC(C#N)=C1CCc2ccccc21	9	9	103	103
Cc1c(C(=O)Nc2ccccc2Cl)oc2c1C(O)CC(C)(C)C2 (stereo unspecified)	-28	-3	104	102
O=C1CCC/C1=c1/s/c(=C/c2cccnc2)c(=O)n1-c1ccccc1	x	-1	104	98
O=C1CC(NNc2ccccc2)C(=O)N1 (stereo unspecified)	-36	9	99	98
COc1cc(S(=O)(=O)N2CCN(c3c(C)cc(C)cc3C)CC2)ccc1F	-59	0	99	101
Cn1c(=O)n(C)c2cc(/C=N/NC(=O)Nc3ccccc3)ccc21	-26	8	99	100
CCOC(=O)N1c2ccccc2C=CC1OCC (stereo unspecified)	-21	2	103	104

Grouped by structure, those above with an NH in an aromatic ring.
SMILES	MenB inh	MbtI inh	PV pol inh	PV pol inh intensity
CCOc1ccc(CNc2ccc(CNc3ncn[nH]3)cc2)cc1	-18	-15	100	98
O=c1[nH]cnc2scc(-c3cccs3)c12	0	12	102	107

Record cards (already shown). Values in the order: MenB inh	MbtI inh	PV pol inh	PV pol inh intensity
COc1ccccc1N1CCN(/C=C2/SC(=S)NC2=O)CC1 across the screens: -27	22	x	x
N#CC(C#N)=C1CCc2ccccc21 across the screens: 9	9	103	103
COCCn1c(SCC(=O)C(F)(F)F)nnc1-c1ccncc1 across the screens: 14	15	103	98

Later entries
SMILES	MenB inh	MbtI inh	PV pol inh	PV pol inh intensity
Nc1nnc(SCC(=O)N2CCCCC2)s1	2	x	105	110
Cc1ccc2c(c1)C1CN(C)CCC1N2C(=O)Nc1cccc(C(F)(F)F)c1 (stereo unspecified)	-9	-12	105	108
O=C(Cn1c(=O)n(CC(=O)NC2CCCC2)c(=O)c2ccccc21)Nc1ccc(Br)cc1	1	-1	100	105
Oc1cc(O)c2ncccc2c1	-244	-413	104	102
O=c1[nH]c(=O)n(C2C[C@H](O)[C@@H](CO)O2)cc1C(F)(F)F (stereo partly specified)	-5	-13	101	102
Cn1c(C(F)(F)F)nn(CN2CC=C(c3ccccc3)CC2)c1=S	-26	-7	103	102
Cc1ccc2nc(/C(C#N)=C\C3CC4C=CC3C4)[nH]c2c1 (stereo unspecified)	-35	-69	100	105
O=S(=O)(CC(CN1CCCCC1)N1CCCCC1)c1ccccc1 (stereo unspecified)	-11	x	105	107
CON(C)c1ncnc2scc(-c3ccc(C)cc3)c12	-3	2	101	97
CC1CCCCN1C(=O)COc1ncnc2sccc12 (stereo unspecified)	-2	-2	99	102
CN(C)c1ccc(CCNC(=O)c2ccco2)cc1	2	x	104	105
O=C(CC1(O)C(=O)Nc2ccccc21)c1ccccc1O (stereo unspecified)	-18	-5	106	101
O=C(Nc1ccccc1)Nc1ccccc1N1CCOCC1	11	2	102	100
CCOC(=O)C1C(=O)NC(N2CCOCC2)=NC1c1ccccc1 (stereo unspecified)	-8	-17	99	105
Cc1cc(NC(=O)CN2C(=O)CCC2=O)no1	-24	6	101	103
CC(C)(Oc1ccc(Cl)cc1)C(=O)Nc1ccc(Cl)cn1	-22	-4	105	102
Cc1ccn2c(=O)c(NC(=O)c3ccccc3)cnc2c1	2	4	100	102
CCOC(=O)C1=NN(C(=O)COc2ccccc2)C(O)(c2ccc(Br)cc2)C1 (stereo unspecified)	-23	-3	104	103
CCc1ccc(-c2cc(C)no2)cc1S(=O)(=O)N1CCN(C2CCCCC2)CC1	-20	-12	103	103
FC(F)(F)c1cc(Cl)c2nc(-c3n[nH]c(=S)o3)cn2c1	-17	0	102	93
CCCCC(=O)Nc1ccc(I)c(C)n1	-4	-5	100	104
COc1ccc(-c2noc(CSCC(=O)O)n2)cc1OC	-5	-5	102	102
O=C(CCc1ccccc1)NCc1ccccn1	-21	-6	104	108
COC(CNC(=O)C1CCN(S(=O)(=O)c2cccc3nsnc23)CC1)OC	10	4	104	107
O=C(c1ccc(S(=O)(=O)N2CCOCC2)o1)N1CCOCC1	-8	-7	102	94

(cont.)
SMILES	MenB inh	MbtI inh	PV pol inh	PV pol inh intensity
Cn1c(O)c(N=NC(=O)CNC(=O)c2ccccc2)c2ccccc21	-8	14	101	102
O=C(CSC1=NC(=O)C(c2ccccc2)C(=O)N1)NC1CCCCC1 (stereo unspecified)	-3	-9	104	107
NC(=O)c1ccccc1Sc1ccccc1C(N)=O	-2	2	101	104
CC(C)CNC(=O)c1cc2sccc2n1Cc1ccccc1	12	13	101	102
COc1ccc(CCn2c(-c3ccco3)nc3ccccc3c2=O)cc1OC	-23	25	103	102
N#Cc1ccccc1CSc1nc2ccccc2s1	-24	-3	103	103
Cc1ccc(-c2nnc(N3CCCCC3)c3ccccc23)cc1C	-14	-4	104	102
COc1ccc(Cc2nnc(C(=O)N3CCN(c4ccccc4OC)CC3)o2)cc1OC	-34	-4	106	97
COc1ccc(CN2CCC(C(=O)O)CC2)cc1	14	-8	104	106
O=C(O)c1ccc(NS(=O)(=O)c2ccc3c4c(cccc24)C(=O)N3)cc1	-37	5	103	98
CCOc1cc(C(=S)N2CCCC2)ccc1OCc1ccccc1F	-35	-13	102	106
O=C1CC(=O)c2ccc3c4c(ccc1c24)C(=O)CC3=O	-252	93*	90	107
CCCCNc1nc2ccccc2n1CC(N)=O	1	-4	106	107
NCc1cc(C2CC2)n[nH]1	-37	-6	102	102
COc1ccc(C2=NN3C(=O)c4c(ccc(OC)c4OC)C3C2)cc1 (stereo unspecified)	-20	10	101	103
O=C(O)C1C2C3C=CC(C3)C12 (stereo unspecified)	-10	-9	101	102
Cn1c(O)c(C=Nc2cccc3ccccc23)c2ccccc21	4	2	102	104
CC1(C)C2CC[C@](C)(C2)C1NC(=O)C1CCCCC1 (stereo partly specified)	11	-4	101	101
CCc1ccc(C(=O)CN2C(=O)CN(C)C2=O)cc1	-2	1	107	111
Cc1cc2c(cc1S(=O)(=O)NC1CCCCCCC1)OCC(=O)N2	-2	-8	102	101
CCc1nc2ccccc2c(C(=O)OCC(=O)Nc2ccc(S(=O)(=O)N3CCOCC3)cc2)c1C	-5	-6	105	108
O=C(O)c1nn(-c2ccc(Cl)cc2Cl)c(=O)cc1O	-11	19	102	102
COc1ccccc1NCC(=O)N/N=C1/CCCCC1C (stereo unspecified)	-11	-3	105	102
CC1(C)CC(=O)C(Sc2ccc(Br)cc2)=C(O)C1	-14	13	99	102
C/C=C(/C)C(=O)O[C@@H]1[C@H](OC(C)=O)[C@@]2(CO)C(CC1(C)C)C1=CCC3[C@@]4(C)CC[C@H](O[C@@H]5O[C@H](C(=O)O)[C@@H](O[C@@H]6O[C@H](CO)[C@@H](O)[C@H](O)[C@H]6O)[C@H](O)[C@H]5O[C@@H]5O[C@H](CO)[C@@H](O)[C@H](O)[C@H]5O)[C@](C)(CO)C4CC[C@@]3(C)[C@]1(C)C[C@H]2O (stereo partly specified)	-1	2	101	101

Going on with the list:
SMILES	MenB inh	MbtI inh	PV pol inh	PV pol inh intensity
CS(=O)(=O)N(Cc1ccccc1)c1ccc(C(=O)NC2CCCCC2O)cc1 (stereo unspecified)	-26	-25	106	103
N/C(CSc1cccs1)=N\OC(=O)Nc1ccccc1	-17	13	106	103
O=C1S/C(=C\C=C\c2ccco2)C(=O)N1c1ccccc1	-75	-5	x	x
Nc1nonc1C(=O)NCCNCc1ccncc1	-14	-8	101	102
O=C1[C@H](CCC(O)c2ccc(F)cc2)[C@@H](c2ccc(O)cc2)N1c1ccc(F)cc1 (stereo partly specified)	-11	-11	101	103
O=C(CC(C(=O)N1CCc2ccccc21)n1ccnc1)NCc1ccccc1 (stereo unspecified)	-16	-10	102	95
O=C(COC(=O)C1CCCCC1)Nc1cc(Cl)cc(Cl)c1	x	-5	100	99
OCCOc1ccccc1O	7	-9	99	106
CCCNC(=O)N1CC(CC)Oc2ccccc21 (stereo unspecified)	7	3	98	100
c1ccc(C(CN2CCOCC2)c2ccccc2)cc1	-13	-15	101	103
CCN(CC)C(=O)Cn1cc(SCc2ccccc2)c2ccccc21	-21	5	98	103
Cc1nc2ccc(F)cc2c2c1CCN2c1ccc(Cl)cc1	7	-194	102	104
NC(=O)C1CCN(C(=O)c2ccc(C(F)(F)F)cc2)CC1	x	-10	102	106
CCOc1ccc(NC(=O)N2CC(C)OC(C)C2)cc1 (stereo unspecified)	0	-11	103	109
CC(=Nc1ccc(C(=O)O)cc1)c1cc2c(=O)n(C)c3ccccc3c2oc1=O	10	x	107	116
Cc1ccc(NC(=S)N(Cc2ccco2)Cc2cc3cc(C)c(Cl)cc3[nH]c2=O)cc1	-12	-10	101	101
Cc1nn(CN2CCCC2c2cccs2)c(C)c1S(=O)(=O)N1CCCCC1 (stereo unspecified)	-45	-10	108	107
Cc1cc(C)cc(NC(=O)N(CCC#N)Cc2ccccc2)c1	-16	3	103	104
CC(C)C1CCC(C)C(C(O)c2ccc(-c3ccccc3)cc2)C1=O (stereo unspecified)	5	1	104	99
Cc1cc2c(cc1S(=O)(=O)N1CCc3ccccc31)n(C)c(=O)c(=O)n2C	0	8	101	102
O=C(c1cc2c(s1)CCCCCC2)N1CCC2(CC1)OCCO2	-8	1	99	101
CCc1ccc(CC(=S)N2CCOCC2)cc1	-18	4	104	107
O=C(NCc1ccc(-c2cccs2)s1)c1c(Cl)cccc1Cl	-24	7	107	112
O=C(OCC(=O)N1CCCC1)c1ccc(OC(F)(F)F)cc1	x	-5	104	102
O=c1[nH]nc(CSCc2csc(-c3ccccc3)n2)[nH]1	-36	3	102	101

(list continues)
SMILES	MenB inh	MbtI inh	PV pol inh	PV pol inh intensity
Cc1cc(C)c2c(=O)[nH]c(SCc3ccccc3C)nc2n1	-29	-10	101	96
Cc1nc2sc(C(c3ccccc3Cl)N(C)Cc3ccccc3)c(O)n2n1 (stereo unspecified)	-2	14	101	102
Cc1ccc(Sc2oc(/C=N/n3cnnc3)cc2Br)cc1	-36	-32	99	104
CN1CCC(OC(=O)c2ccc3c(c2)OCCO3)CC1	2	x	103	108
CC(Sc1nc2ccccc2s1)C(=O)N1CCOCC1 (stereo unspecified)	-18	-14	100	103
c1ccc2c(c1)CCN2c1nc2ccccc2n2cnnc12	-14	94	102	115
O=C(CCN1CCCCC1)N/N=C/c1ccccc1OC(F)F	-43	12	106	98
N#CC(c1ccccn1)c1nc(=O)c2ccccc2s1 (stereo unspecified)	x	-4	101	104
CC1Cc2ccccc2N1C(=O)c1ccc2c(c1)OCO2 (stereo unspecified)	-3	-8	100	101
O=C(CN1CCN(c2ccc(O)cc2)CC1)NC1CCCc2ccccc21 (stereo unspecified)	4	4	103	97
CCN1c2ccccc2NC2N=C(OC)C(c3ccccc3)C21 (stereo unspecified)	-4	-9	106	111
Cc1cc(=O)cc(C)n1-c1ccc(Cl)cc1Cl	x	-12	102	104
CC(C)(C)c1ccc(C(=O)N2CCC(c3nc(-c4ccc(Cl)cc4)no3)CC2)cc1	-1	-12	104	108
Cc1cccc(-c2nnc(C3CCN(S(=O)(=O)Cc4ccccc4)CC3)o2)c1	-63	72*	98	93
Cc1ccc(C)c(Nc2cn[nH]c(=O)c2Cl)c1	-37	4	99	107

Copied from the list.
`Cc1nc2sc(C(c3ccccc3Cl)N(C)Cc3ccccc3)c(O)n2n1` (stereo unspecified) | PV pol inh: 101
`CC(Sc1nc2ccccc2s1)C(=O)N1CCOCC1` (stereo unspecified) | MenB inh: -18
`Cc1ccc(Sc2oc(/C=N/n3cnnc3)cc2Br)cc1` | PV pol inh: 99
`O=C(CN1CCN(c2ccc(O)cc2)CC1)NC1CCCc2ccccc21` (stereo unspecified) | MenB inh: 4
`CC(C)(C)c1ccc(C(=O)N2CCC(c3nc(-c4ccc(Cl)cc4)no3)CC2)cc1` | MbtI inh: -12
`CC1Cc2ccccc2N1C(=O)c1ccc2c(c1)OCO2` (stereo unspecified) | MbtI inh: -8
`N#CC(c1ccccn1)c1nc(=O)c2ccccc2s1` (stereo unspecified) | PV pol inh intensity: 104
